Screens as filed in PubChem.
Rango complex inh = Rango-importin beta binding inhibition; Q14974; Rango CFP/YFP FRET sensor + importin beta, 45 min; 0.031% of 340,000 active; Potency, µM (top dose mostly 92.2 µM), for the others: at the highest dose inhibition of complex formation; active = rising FRET ratio curve, often small or poorly fitted; inconclusive = mostly compound fluorescence or quenching in the first reads; inactive = flat curves in all reads;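 further: potency means the concentration at half of the fitted maximal effect; 0% = DMSO wells and 100% = buffer wells lacking importin beta; nearly all actives have a fitted effect of over 15% in size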
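FRET biosensor (snurportin 1 IBB flanked by EYFP and cerulean), 50 nM, with compound 5 min, then 0.125 microM importin beta in PBS, 1 mM DTT, 0.02% Tween-20, 0.1% BSA. CFP/YFP ratio read after 45 min at room temperature; pre-read flags interference.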
GLA inh pH 4.5 = inhibitors of human alpha-galactosidase A at pH 4.5; purified enzyme, 4-MU-alpha-Gal fluorescence, pH 4.5; activity change, negative = inhibition, % at 105 µM; 230,000 tested, under 10 active; AID 1467; inconclusive = small, poorly fitted or top-dose-only inhibition, or a rising curve; inactive = flat fitted curve, though single readings scatter; no compound was filed as active;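 further: 0% = full activity with enzyme and -100% = basal without enzyme; dose as in the result columns while the protocol names 77 µM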
Target sequence (P06280 whole entry, looked up): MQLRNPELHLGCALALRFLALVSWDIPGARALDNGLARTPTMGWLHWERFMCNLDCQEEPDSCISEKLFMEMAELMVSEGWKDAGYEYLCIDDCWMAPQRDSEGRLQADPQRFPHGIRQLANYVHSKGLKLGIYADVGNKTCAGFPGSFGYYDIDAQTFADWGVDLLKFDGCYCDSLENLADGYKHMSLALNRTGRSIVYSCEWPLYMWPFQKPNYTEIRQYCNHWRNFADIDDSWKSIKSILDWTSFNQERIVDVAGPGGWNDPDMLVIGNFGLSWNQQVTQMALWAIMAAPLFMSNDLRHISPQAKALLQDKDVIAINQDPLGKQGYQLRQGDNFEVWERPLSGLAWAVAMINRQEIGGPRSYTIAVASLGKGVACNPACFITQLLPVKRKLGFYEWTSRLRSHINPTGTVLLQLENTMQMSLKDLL
Rango dissoc inh = prevents RanGTP from dissociating the Rango-importin beta complex; O95149+P62826; Biochemical FRET Rango-importin beta, RanGTP-induced dissociation; Potency, µM (titrated, usually from 46.1 µM), for inactives: at the highest dose activity change, negative = inhibition; 0.071% of 340,000 active; AID 540253; active means falling FRET ratio curve, often poorly fitted, with flat reads before Ran was added; inconclusive means other falling curves, or compound fluorescence or quenching; inactive means flat or rising ratio curve;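 further: potency means the concentration at half of the fitted maximal effect; % of control where 0% means no effect; nearly all actives have a fitted effect of over 45% in size; -100% = wells without RanGTP and RCC1; the record marks most hits as doubtful in a second field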
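Compounds sat 5 min at room temperature with 0.1 uM Rango biosensor plus 0.25 uM importin beta, then FRET pre-read. RanGTP-RCC1 (0.6 uM Ran, 2mM GTP, 0.2 uM RCC1) added for 45 min, and the CFP/YFP post-read measured blocked complex dissociation.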
miR-21 reporter = raises the signal of a miR-21 reporter; HeLa miR-21 FLuc reporter, luciferase, 48 h; Potency, µM (series often up to 38.3 µM), without a hit: at the top dose reporter change, positive = more light; 340,000 tested, under 10 active; active = well fitted rising curve with a large enough effect; inconclusive = small, poorly fitted or top-dose-only effect; inactive = no such curve, though single readings can be large or run the other way;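 further: % of control where 0% means no effect; miR-21 action dims this reporter so a rising signal means less miR-21 action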
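Compounds were titrated across several concentrations (up to approximately 40 uM) and incubated 48 hours with HeLa miR-21-FLuc reporter cells (miR-21 target sequence downstream of FLuc, endogenous miR-21). Readout was firefly luciferase luminescence after lytic detection reagent.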
The depositor's hits bear a star; ? = inconclusive; · = not tested or not shown; [ ] = another dose, or the depositor's remark. Only part of the results is shown; count on the stated rates, not on these rows.

Results follow in this order: Rango complex inh	GLA inh pH 4.5	Rango dissoc inh	miR-21 reporter
CC(NS(=O)(=O)c1ccccc1)c1n[nH]c(=S)n1-c1ccccc1 (configuration not stated)
  3.2%	-5	-9%	1%
O=C(Nc1ccc(Oc2cccnc2)cc1)C1CCCCN1Cc1ccc(CO)o1 (configuration not stated)
  -4.9%	·	9%	15%
Cc1ccc(S(=O)(=O)NCCC(=O)NCCSc2ccc(Br)cc2)cc1
  -0.3%	·	21%	-13%
COc1ccc(/C=C/C(=O)c2ccncc2)c2ccccc12
  ?	-3	?	-2%
CCOC(=O)C1CCN(CC(=O)Nc2cc(C)nn2-c2nc3ccccc3s2)CC1
  -5.5%	6	-22%	-3%
O=C(O)C(CCc1ccccc1)(Cc1ccccc1)C(=O)O
  2.9%	·	20%	·
CN(CC(=O)Nc1ccc(C(N)=O)cc1)S(=O)(=O)c1ccc2c(c1)OCCO2
  -0.6%	·	-15%	·
CCN1C(=O)CSC1=Nc1ccc(Cl)c(Cl)c1
  3.1%	·	-14%	7%
CN(C)c1ccc(/C=C2\N=C(C(C)(C)C)OC2=O)cc1
  14%	·	?	-3%
Cc1c(CCO)c(=O)n(-c2ccccc2)n1S(=O)(=O)c1ccc(F)cc1
  4.1%	-4	11%	-1%

The closing two entries of the part before lead into the next.
Results follow in this order: Rango complex inh	GLA inh pH 4.5	Rango dissoc inh	miR-21 reporter
CN(C)c1ccc(/C=C2\N=C(C(C)(C)C)OC2=O)cc1
  14%	·	?	-3%
Cc1c(CCO)c(=O)n(-c2ccccc2)n1S(=O)(=O)c1ccc(F)cc1
  4.1%	-4	11%	-1%
O=C(NCCNC1CCC(c2ccccc2)CC1)c1cccs1 (configuration not stated)
  2.5%	4	-5%	-13%
C[N+](C)=C1SCC(C)(/C=N/O)S1 (configuration not stated)
  0.4%	4	-1%	3%
CC1CN(C(=O)CCC(=O)N2CCCCC2)c2ccccc2O1 (configuration not stated)
  -3.9%	·	-6%	1%
CN(CC1CCOCC1)C(=O)CC1C(=O)NCCN1CC1CCCCC1 (configuration not stated)
  0.1%	6	3%	-5%
COc1cc(C(=O)NCCC(=O)N2CCN(C)CC2)cc(OC)c1OC
  -5.0%	2[21.1 µM]	-24%	1%
Cc1[nH]n(-c2ccccc2)c(=O)c1N=Nc1ccc(Cl)cc1
  3.9%	·	1%	1%
COCCNC(=O)CN(C(=O)CCC(=O)Nc1cc(C)on1)c1cccc(C)c1C
  0.3%	-3	-2%	-1%
S=C(NCCc1ccccc1)N1CCCCC1
  0.7%	-1	5%	-55%
O=C(COc1ccccc1[N+](=O)[O-])Nc1cccnc1
  ?	3	1%	-62%
CCOC(=O)C1CCN(C(=O)Cn2nc(C)n3nc(-c4ccc(OC)cc4)cc3c2=O)CC1
  -0.7%	·	19%	0%
O=C(NNS(=O)(=O)c1ccc(Cl)cc1)c1cccs1
  3.4%	3	-11%	-13%
CC(=O)NCCc1nc2cc(NC(=O)c3ccccc3)ccc2n1C
  ?	6	-22%	-47%
O=C(CSc1nnc(-c2ccccc2)o1)N1CCCCC1
  -0.8%	·	0%	-58%
O=C(NN=Cc1ccc(OC(F)F)cc1)c1ccc(NS(=O)(=O)c2cccs2)cc1
  0.3%	·	-14%	·
O=C(NCc1nnc(SCC(=O)N2CCOCC2)o1)c1ccccc1F
  8.6%	5	10%	5%
CCCCc1ccc(S(=O)(=O)NCCCN2CCCC2=O)cc1
  8.3%	·	0%	8%
Cc1ccc(Cl)cc1N1CCN(C(=O)CCS(=O)(=O)c2cccc3nonc23)CC1
  6.1%	-9	-14%	-7%
O=C(NCCN1CCOCC1)c1cc2ccccc2[nH]1
  -2.0%	-1	-9%	-4%
CCOC(=O)c1sc(NC(=O)CSC(=S)N2CCN(C)CC2)nc1C
  -0.2%	11	0%	-9%
COc1ccc(NC(=O)Cn2c(-c3ccccc3)cc(C(C)=O)c2C)c(OC)c1
  -4.9%	1	0%	-9%
COc1ccc(NC(=O)CSC2=C(C#N)C(c3ccco3)C(C(=O)Nc3nc4ccccc4s3)=C(C)N2)cc1 (configuration not stated)
  -4.2%	·	-20%	·
COc1cc2nc(CSc3ncn[nH]3)[nH]c(=O)c2cc1OC
  3.2%	9	5%	-4%
Cc1ccc(/C=C/c2ccc(=O)n(Cc3ccc(F)cc3)n2)cc1
  2.1%	-15	-1%	-7%
CCOc1ccc(S(=O)(=O)NCc2ccccn2)c(C)c1C
  -3.9%	·	6%	7%
CCC1(c2ccc(Cl)cc2)NC(=O)N(CC(=O)NC2(C#N)CCCCC2)C1=O (configuration not stated)
  -1.4%	·	25%	·
Cc1cc(C)cc(N(C(=O)c2cc3ccccc3oc2=O)C2C=CS(=O)(=O)C2)c1 (configuration not stated)
  -5.1%	0	0%	-3%
NNc1nc2sc3c(c2c(=O)n1Cc1ccccc1)CCC3
  ?	5	?	-17%
O=C(N/N=C/c1cn(CCOc2ccccc2)c2ccccc12)c1ccncc1
  -1.7%	-15	-8%	-29%
COc1cc2nc(NC(=O)c3ccc(Cl)cc3)[nH]c(=O)c2cc1OC
  -3.5%	13	?	-4%
CCCCC(OC(=O)c1cc2occc2n1C)C(=O)NCC1CCCO1 (configuration not stated)
  -0.8%	5	-6%	-5%
CCOc1ccc(Br)cc1CSC(=N)N
  0.0%	1	1%	20%
CCOC(=O)c1cnc(SCC(=O)NCc2ccco2)nc1N
  -1.9%	-2	18%	0%
O=C(CNC(=O)c1ccccc1F)NCC(c1cccs1)N1CCOCC1 (configuration not stated)
  -2.3%	·	-3%	·
CC(C)[C@H](NC(=O)c1ccc(Cl)cc1)C(=O)OCC(=O)N1CCN(c2ccccc2)CC1
  2.2%	·	18%	·
O=C(Nc1ccc(Cl)c(Cl)c1)N1CCC(N2CCCCC2)CC1
  0.2%	6	2%	-1%
Cc1cc(C)cc(N2CCCn3c2nc2c3c(=O)n(CCN3CCOCC3)c(=O)n2C)c1
  1.9%	-5	1%	-2%
CC(C)NC(=O)CC1Nc2c3ccccc3nc(=S)n2C1=O (configuration not stated)
  -3.8%	-1	19%	-4%
O=C(CN1C(=O)NC2(CCCCC2)C1=O)Oc1ccc2ccc(=O)oc2c1
  ?	·	?	·
O=C(CN1CCOCC1)Nc1ccccc1Sc1ccc(Cl)cc1
  2.2%	-12	-17%	11%
CCCCn1c(=O)[nH]c(=O)c2c1nc(-c1cc(Cl)c(OC)c(OC)c1)n2C
  2.4%	·	3%	8%
O=C(CSc1nc(C2CCCCC2)n(-c2ccccc2)n1)NCC(F)(F)F
  0.3%	2	-19%	-3%
Nc1nc(N)nc(Cc2ccccc2O)n1
  -2.4%	·	-2%	·
COC(=O)c1c(NC(=O)C2C3C=CC(CC3)C2C(=O)O)sc(C)c1C (configuration not stated)
  -0.3%	-9	8%	-4%
Cc1nc2ccccc2c(=O)n1NC(=O)c1ccc([N+](=O)[O-])cc1Cl
  -0.5%	3	1%	0%
O=C1CN(C(=O)COC(=O)c2c(F)cccc2Cl)c2ccccc2N1
  -1.6%	·	7%	·
O=[N+]([O-])c1ccccc1OCc1nc(-c2cccs2)no1
  -1.0%	-15	-2%	-78%
COc1ccc(-n2ncc3c(NCc4cccnc4)ncnc32)cc1
  -2.8%	·	11%	-26%
Cc1ccc(NC(=O)CCC(=O)c2cccs2)cc1F
  0.3%	·	8%	-10%
CCN(CC)C(CNC(=O)CSc1nnnn1-c1c(C)cccc1C)c1ccco1 (configuration not stated)
  -2.1%	·	5%	·
CCc1ccc(OCC(=O)c2c(O)c3ccccc3oc2=O)cc1
  -0.2%	6	5%	2%

Next section:
Results follow in this order: Rango complex inh	GLA inh pH 4.5	Rango dissoc inh	miR-21 reporter
CC(=O)N1CN(Cc2ccccn2)Cc2c1sc1c2CCCC1
  ?	8	-26%	-11%
CCOc1ccccc1C=NNC(=O)C(=O)NN=Cc1ccccc1OCC
  3.4%	·	19%	·
COc1ccc(CNC(=O)CN(C(=O)c2csnn2)c2cnc3ccccc3c2)cc1
  0.5%	·	?	-4%
CNC(=S)N1CCN(C(=O)c2ccco2)CC1
  -0.6%	10	17%	-2%
COc1cccc(NC(=O)CSc2nc(=O)n(CCN(C)C)c3c2CCCC3)c1
  0.3%	·	0%	·
CS(=O)(=O)c1ccccc1-c1nnc(NC(=O)c2ccco2)o1
  2.6%	·	14%	·
CN=C1c2c(-c3ccccc3)c3cc(OC)ccc3n2CCN1C
  ?	-14	-6%	-1%
Cc1ccc(S(=O)(=O)N(CCC#N)C2CCCCC2)c2nsnc12
  3.7%	-2	-2%	-10%
CN(C)S(=O)(=O)c1ccc2nc(NC(=O)c3cccs3)sc2c1
  -2.8%	-9	-25%	-14%
COc1ccc2nc(NC(=O)c3cccc(S(=O)(=O)N4CCOCC4)c3)sc2c1
  -2.0%	6	-2%	-5%
CSc1ccc(OC2CCCCC2NS(=O)(=O)c2ccccc2)cc1 (configuration not stated)
  -0.4%	-5	16%	-9%
O=C(/C=C/c1cccs1)NNC(=O)c1ccccc1
  -3.9%	·	-4%	·
O=[N+]([O-])c1ccc(N2CCN(c3ccc(F)cc3)CC2)nc1
  1.1%	·	-5%	-7%
COc1cccc(NC(=O)c2ccc(Cn3cc([N+](=O)[O-])cn3)o2)c1
  2.6%	-3	-14%	-11%
Fc1ccc(-c2nc3ccccn3c2NCc2ccc3c(c2)OCO3)cc1
  -2.9%	0	-1%	-3%
CCOC(=O)Nc1ccc2c(COC(=O)c3ccccc3O)cc(=O)oc2c1
  ?	·	-9%	-33%
C/C(Cl)=C\Cn1c(O)c(N=O)c2ccccc21
  1.0%	3	11%	-2%
CCc1ccc(CN(C)C(=O)C2CCC(=O)N(Cc3ccccn3)C2)cc1 (configuration not stated)
  -1.0%	·	-8%	1%
O=C(NCc1ccco1)C(=O)NCC1OCCCN1S(=O)(=O)c1ccccc1 (configuration not stated)
  3.4%	7	10%	1%
Cc1c(C(=O)NCc2ccccn2)oc2c(Cl)cccc12
  0.1%	·	-3%	·
CN1C(=O)C(=O)/C(=C(/O)c2ccc(Br)cc2)C1c1ccc(Cl)cc1 (configuration not stated)
  -0.3%	·	21%	-2%
Cc1nnc(NC(=O)c2ccc(Br)o2)s1
  2.0%	·	0%	-10%
O=C1/C(=C/c2ccco2)SC(=S)N1C1CCS(=O)(=O)C1 (configuration not stated)
  0.2%	-17	-13%	-1%
CCn1c(CNC(=O)Cc2ccc(OC)cc2)n[nH]c1=S
  ?	7	-12%	-4%
Cc1c(O)nc2sc3ccccc3n2c1=O
  ·	4	·	3%
Cc1nnc(Sc2cc(C(=O)NC3CC3)c3ccccc3n2)s1
  -0.4%	3	-12%	6%
CCOC(=O)N1CCN(S(=O)(=O)c2ccc(C(=O)Nc3nnc(C4CC4)o3)cc2)CC1
  0.0%	8	-2%	4%
COC(=O)c1ccc(-c2nc(CN3CCCN(C(=O)c4ccco4)CC3)c(C)o2)cc1
  1.1%	·	-24%	-14%
COc1ccc(-n2c(C)cc(/C=C3/SC(=O)N(CC(=O)N4CCOCC4)C3=O)c2C)cc1
  -0.8%	-1	-7%	-16%
CCOc1ccc(NC(=O)CCN2CCCCC2)cc1
  -3.8%	-6	6%	-5%
COc1ccc(C2/C=C\CN(CC(C)C)CC(=O)N2Cc2ccc(F)cc2)cc1 (configuration not stated)
  4.5%	-5	-20%	7%
COc1ccc(C(=O)N(C)C(C)c2ccon2)cc1OC1CCN(C(C)C)CC1 (configuration not stated)
  0.3%	·	-10%	-4%
CC(C)(C)C(=O)NCCc1nc(-c2ccccc2)no1
  -4.1%	·	13%	·
CC(=O)N1CC(=O)N(c2ccccc2)C1=O
  1.2%	·	7%	2%
O=C(Nc1cccc2ccccc12)c1cnccn1
  -1.3%	2	1%	-59%
Cc1n[nH]c(=S)n1/N=C/c1cccc(OCc2ccccc2)c1
  0.1%	-1	-7%	-38%
CC12CN3CCN(CC(C3)C1(O)CN1CCCCC1)C2 (configuration not stated)
  -2.4%	2	-12%	-1%
